Screening data from PubChem.
Bfl-1 A1 inh: caspase 3/7 activation in MEF A1-2A-BIM cells, primary screen, A1 inhibitor project, cell-based, luminescence, HTS. Caspase-Glo 3/7 luminescence, 3 h; percent of clofoctol response, vehicle zero. caspase activation, % (no concentration beside the values). actives 0.066% (n = 330,000). AID 2462, 2010;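 active = over half of replicate activation scores above 10%, or exactly half above 10 with the replicate mean above 10; inconclusive = replicate mean below 10 yet half the replicates above 10; inactive = over half of replicates below 10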;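 note: wells of about 30 µL received 50 nL stock; many hits fall short of the cut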
AF4-AF9 inh: inhibitors of AF4 peptide binding to AF9, primary screen, biochemical, AlphaScreen, biotin-AF4 peptide, FLAG-AF9, single point. actives 0.47% (n = 350,000). inhibition, % at 10 µM;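 active = every replicate reaching a set inhibition limit, whatever the replicate mean, cut at about 25% in these data; inconclusive = mean inhibition reaches that limit but some replicates miss it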;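 note: 0% = plate neutral control median and 100% = total signal loss; the record names both 10 and 1 µM as test concentration; the first replicate is given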
Vif TR-FRET: inhibitors of Vif binding to APOBEC3G peptide, primary screen, biochemical, TR-FRET, GST-Vif 1-94, biotin-A3G peptide, dose response retest (AID 1117319) | Virion infectivity factor (Human immunodeficiency virus type 1 group M subtype B (isolate … | TR-FRET GST-Vif / biotin-A3G peptide binding; higher % means a stronger effect; test concentration not given here; strong numbers were not always called active | inhibition, %; hits with a dose series show IC50 in µM | actives 0.57% (n = 260,000);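 active = above the screen mean plus three standard deviations and confirmed in dose response; inconclusive = results disagree or hit not tested in dose response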;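 note: Vif residues 1-94 fused to GST binding biotinylated APOBEC3G peptide 110-148; 0% = full assay without inhibitor and 100% = GST in place of GST-Vif; retest series ran down from 100 µM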
Calb FLC: C. albicans growth inhibition with fluconazole, primary screen, CaCi-2 strain, Alamar Blue fluorescence. C. albicans CaCi-2 (fluconazole-resistant clinical isolate) + fluconazole, 48 h. AID 1979, 2009. growth inhibition, % (no concentration beside the values). actives 0.57% (n = 300,000);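 active = most replicates above 75%; inconclusive = exactly half above 75%; inactive = most below 75%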;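 note: all wells also contain fluconazole at 8 µg/ml as a sub-toxic cotreatment; 0% = median of DMSO wells and 100% = median of geldanamycin control wells; wells of about 8 µL received 7.5 nL stock; the first replicate is given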
Beta cell apopt: inhibitors of cytokine-induced beta cell apoptosis, primary screen, luminescence | INS-1E cytokine-induced death, ATP luminescence, 48 h; percent of positive-control rescue, neutral wells zero | protection from apoptosis, % (test concentration not listed) | actives 0.8% (n = 300,000) | AID 435005, 2010;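 active = all replicates at 75% or more, or half of them and the mean; inconclusive = half reach 75% but not the mean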;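 note: 0% = cytokine-treated negative control wells and 100% = positive control rescue; higher means more ATP so stronger rescue from cytokine killing; wells of about 40 µL received 100 nL stock; the first replicate is given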
T cruzi repl: inhibitors of intracellular T. cruzi growth, primary screen, luminescence, NIH3T3 host cells. T. cruzi beta-gal in NIH3T3, 90 h. inhibition, % (no concentration beside the values). actives 1.4% (n = 300,000);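 active = mean inhibition across valid replicates above about 55%, limit read from the data; inconclusive = mean below that limit but half or more replicates reach it; inactive = mean below it, under half of replicates reach it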;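 note: signal also drops with host cell toxicity which is not excluded here; 0% = plate median of DMSO wells and 100% = zero luminescence signal; higher percent means less beta-gal luminescence so fewer parasites; stock transfer was 50 nL into about 50 µL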
LANA-H2B inh: blockers of LANA interaction with H2A/H2B – biochemical, FP readout, HTS, primary screen | Protein LANA1 (Human herpesvirus 8 type P (isolate GK18)), Q9QR71 | cell-free LANA-H2A/H2B peptide, fluorescence polarization | inhibition, % (test concentration not listed) | actives 0.6% (n = 320,000) | AID 2629, 2010; in the data active = inhibition mostly above about 10%, no sharp cut-off; inactive = mostly below about 6.7%;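 note: stock transfer was 7.5 nL into about 10 µL; 0% = median of vehicle wells and 100% = median of positive control wells; one replicate is shown; the record names a cut of 25% in any replicate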
Target sequence (Q9QR71 whole entry, looked up): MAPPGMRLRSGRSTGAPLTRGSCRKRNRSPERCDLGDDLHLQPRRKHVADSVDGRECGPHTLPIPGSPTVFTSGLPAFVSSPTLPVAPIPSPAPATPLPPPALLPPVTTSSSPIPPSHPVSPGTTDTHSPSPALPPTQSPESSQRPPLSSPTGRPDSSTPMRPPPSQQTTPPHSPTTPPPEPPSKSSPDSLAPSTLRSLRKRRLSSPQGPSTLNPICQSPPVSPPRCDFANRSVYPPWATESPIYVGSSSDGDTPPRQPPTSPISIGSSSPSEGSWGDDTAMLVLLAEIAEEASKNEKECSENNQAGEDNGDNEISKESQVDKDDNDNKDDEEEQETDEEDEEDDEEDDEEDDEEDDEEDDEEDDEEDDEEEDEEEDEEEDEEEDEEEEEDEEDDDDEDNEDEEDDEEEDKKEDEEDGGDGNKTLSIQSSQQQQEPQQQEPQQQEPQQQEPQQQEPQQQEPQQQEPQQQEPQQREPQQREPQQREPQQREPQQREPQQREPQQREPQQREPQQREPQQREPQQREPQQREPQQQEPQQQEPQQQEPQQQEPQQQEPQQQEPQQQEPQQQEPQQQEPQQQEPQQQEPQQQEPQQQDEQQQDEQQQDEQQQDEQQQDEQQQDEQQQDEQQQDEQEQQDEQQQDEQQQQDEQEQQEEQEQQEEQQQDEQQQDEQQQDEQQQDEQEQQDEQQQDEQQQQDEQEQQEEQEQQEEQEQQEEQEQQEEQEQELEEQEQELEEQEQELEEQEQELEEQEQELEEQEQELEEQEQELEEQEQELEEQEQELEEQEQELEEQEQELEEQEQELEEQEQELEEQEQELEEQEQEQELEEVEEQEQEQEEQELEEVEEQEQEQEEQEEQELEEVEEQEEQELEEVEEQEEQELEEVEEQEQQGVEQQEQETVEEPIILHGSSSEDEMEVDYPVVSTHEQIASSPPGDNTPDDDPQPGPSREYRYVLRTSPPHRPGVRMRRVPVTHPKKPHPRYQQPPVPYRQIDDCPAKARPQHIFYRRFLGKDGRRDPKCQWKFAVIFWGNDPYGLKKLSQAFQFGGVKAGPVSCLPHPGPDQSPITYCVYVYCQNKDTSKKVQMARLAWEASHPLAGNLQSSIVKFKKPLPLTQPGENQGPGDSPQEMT
RanGTP-Imp inh: inhibitors of RanGTP-importin-beta interaction, primary screen, biochemical, FRET, CFP-Ran, YFP-importin-beta, homogeneous | Ran GTPase (GTP-bound) - importin-beta complex | cell-free CFP-Ran/YFP-importin-beta FRET ratio | inhibition, % (concentration not given with the values) | actives 1.1% (n = 300,000) | AID 2216, 2009;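 active = most replicates above 15%; inconclusive = exactly half above 15%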;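 note: 0% = DMSO wells and 100% = Ran loaded with GDP instead of GTP; wells of about 40 µL received 100 nL stock; the first replicate is given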
Numbers without * were called inactive; ? = inconclusive; / = not tested or not shown; & = joins results of further samples.

SMILES | Bfl-1 A1 inh | AF4-AF9 inh | Vif TR-FRET | Calb FLC | Beta cell apopt | T cruzi repl | LANA-H2B inh | RanGTP-Imp inh
CCC1CCCCN1CCCNC(=O)CS(=O)(=O)Cc1nc(-c2cccc(OC)c2)oc1C (stereo not drawn) | 0.0 | 3.8 | 1% | 0 | 3 | -15 | -3.1 | 1.3
CN=C(Nc1ccc(Cl)cc1)c1ccc(C(F)(F)F)cc1 | 0.4 | / | 1% | -23 | 5 | 10 | -1.2 | -3.4
O=C(NCCc1ccco1)c1ccc(OCc2cn3ccccc3n2)cc1 | -1.5 | -5.8 | 5% | / | 2 | / | 1.1 | /
N#CCc1c(C#N)c(N)nc(N2CCCC(CO)C2)c1C#N (stereo not drawn) | 1.1 | -2.1 | / | -5 | -6 | 1 | 3.2 | 1.4
COC(=O)CN(n1cnnc1)S(=O)(=O)c1ccccc1Cl | 0.6 | / | 0% | -2 | -4 | 1 | -4.7 | -3.6
O=C(Nc1ccccc1)C1CC(=O)N(c2ccc3c4c(cccc24)CC3)C1 (stereo not drawn) | -0.6 | / | -5% | -13 | / | -31 | -1.3 | -0.2
Oc1c(Br)cc2oc3c(c2c1CNCc1ccccc1)CCCC3 | 0.1 | / | 11% | 0 | -2 | -9 | -1.2 | -0.7
COCCSc1nnc(NS(=O)(=O)Cc2ccccc2)s1 | 0.4 | -29 | -3% | -3 | / | -1 | 1.0 | -0.3
Cc1cccc(N(CC(=O)NCc2ccco2)C(=O)CCC(=O)Nc2nccs2)c1 | 0.0 | -0.7 | / | -26 | 1 | 7 | 2.5 | 3.2
O=C(OC[C@@H]1CCCN2CCCC[C@H]12)c1cc2ccccc2oc1=O | -0.4 | / | / | 2 | 8 | -21 | 1.2 | 1.0
CCOC(=O)C1CCCN(C(=O)c2ccc(-c3ccc([N+](=O)[O-])cc3)o2)C1 (stereo not drawn) | 2.0 | -0.6 | 8% | -5 | -5 | 44 | -0.4 | -1.3
Cc1cc(=O)[nH]c(N/N=C/C=C/c2ccccc2)n1 | -0.5 | 0.1 | 1% | 31 | -2 | -21 | -7.5 | 1.6
COc1cc(-c2cc(N3C(=O)Nc4ccccc4N3O)n[nH]2)cc(OC)c1OC | 0.0 | / | 3% | 3 | -1 | -7 | 6.6 | 2.6
COc1ccc(S(=O)(=O)N2CCC(C(=O)NCCN3CCOCC3)CC2)cc1OC | 0.1 | 2.0 | / | 3 | -2 | -15 | 3.6 | 0.6
CC[N+](C)(C)Cc1ccccc1Br | / | 2.8 | 2% | 9 | / | -2 | -7.6 | ?
CN(C)CCN(Cc1ccccc1)c1ccccn1 | 0.7 | 1.6&-4.8 | 19% | / | -3 | 1 | 0.8 | ?
CN(CC(=O)NCc1cccc(F)c1)C(=O)c1ccco1 | -0.3 | / | 9% | -3 | -11 | -26 | -0.5 | 1.6
COC(=O)Nc1ccc(S(=O)(=O)NNC(=O)c2c(O)c3ccccc3[nH]c2=O)cc1 | 0.8 | 0.6 | -3% | -9 | / | -14 | 1.9 | 8.2
CCOC(=O)C1CCCN(S(=O)(=O)c2ccccc2)C1 (stereo not drawn) | -1.5 | / | 24% | 0 | -12 | -14 | 1.3 | -2.2
C[C@]12C[C@H](O)[C@@H]3c4ccc(O)cc4CCC3[C@@H]1CCC2=O (stereo partly drawn) | 0.4 | 0.2 | 10% | -10 | 2 | -7 | -0.1 | -4.4
O=C(C1COc2ccccc2O1)N1CCN(c2nc3c(F)cc(F)cc3s2)CC1 (stereo not drawn) | -0.5 | -6.6 | / | -5 | -2 | 12 | 13 | 4.9
COc1ccc(NS(=O)(=O)c2ccc(C(=O)N3CCN(c4ccc(F)cc4)CC3)cc2)cc1 | -0.6 | 0.9 | / | / | 37 | / | 1.9 | /
CCOC(=O)c1c(C)[nH]c(C=Nc2ccc(OC)cc2)c1O | 0.2 | / | ? | 6 | 3 | 0 | -2.0 | -2.1
Cc1cccc(-c2nc(CSCC(=O)N3CCN(Cc4ccc5c(c4)OCO5)CC3)c(C)o2)c1 | 0.0 | / | 4%&33% | -41 | 47 | 21 | 0.9 | -11
COc1cc(NC(=O)C2CCN(S(=O)(=O)c3ccc4[nH]c(=O)oc4c3)CC2)cc(OC)c1 | 0.0 | 1.1 | 9% | 27 | -1 | 3 | 3.0 | -4.3
Cn1c(=O)c(=O)n(C)c2cc(S(=O)(=O)CCC(=O)NCc3ccccc3)ccc21 | 0.0 | -0.2 | / | -2 | -11 | -2 | 1.6 | 0.3
CCOC(=O)c1cc(NC(=O)N(C(C)C)C(C)C)c(C)nc1C | -0.3 | / | -6% | 4 | / | -3 | 4.5 | 1.9
COc1ccc(NCc2nnc(SCC(=O)Nc3ccccc3)n2C)cc1 | 0.3 | 4.3 | 14% | 4 | 2 | 2 | 4.0 | 0.2
COc1ccc(/C=C2\NC(=O)C(C=NCc3ccccc3)=C2O)cc1 | -2.9 | / | -7% | -2 | / | -1 | -1.8 | 2.5
COc1ccc(C)cc1NC(=O)CCc1ccc(S(=O)(=O)N2CCOCC2)cc1 | 2.4 | 3.1 | 5% | / | 0 | / | 14 | /
COc1ccc2nc(N(Cc3ccccc3)C(=O)CCNC(C)=O)sc2c1 | 0.4 | -1.2 | / | 13 | 4 | -45 | -3.0 | 3.7
CCc1nnc(NC(=O)C(CC)c2ccccc2)s1 (stereo not drawn) | 0.1 | / | 2% | -16 | 5 | 2 | 1.2 | 3.9
CCOC(=O)c1ccc(NC(=O)CN2CCc3ccccc3C2)cc1 | 0.2 | / | 15% | -7 | 7 | 31 | -8.0 | -0.1
O=C(Nc1ccc(F)cc1)c1cc(S(=O)(=O)N2CCCCC2)ccc1F | -0.5 | -0.3 | / | 21 | -5 | 4 | 2.2 | 1.4
NS(=O)(=O)c1cccc(NC(=O)c2ccc3nc[nH]c3c2)c1 | 0.0 | -3.2 | 13% | -10 | -7 | -7 | 7.8 | -0.3
COC(=O)c1[nH]c2cc(OC)ccc2c1NC(=O)CN1CCOCC1 | / | / | 22% | -9 | / | -4 | / | -0.6
CCc1ccc(OCC(O)CN2CCN(CCO)CC2)cc1 (stereo not drawn) | -0.8 | 1.4 | / | -11 | -5 | 5 | 0.1 | 4.3
COc1nc(N=C(N)N)nc2ccc(C)cc12 | 0.1 | 2.8 | / | 0 | -21 | 41 | -5.2 | 7.9
CCCSc1nsc(NC(=O)CCC)n1 | 0.6 | -23 | -1% | -4 | 4 | 56* | -1.3 | 1.2
COc1cccc(S(=O)(=O)NCC(=O)N2CCCC2)c1 | -0.9 | -9.1 | / | -8 | -3 | 0 | -3.5 | 2.4
CCCCCCSc1ccc([C@@H]2[C@H]3C(=O)N(CC)C(=O)[C@H]3[C@]3(C(=O)OC)CCCCN23)cc1OC | -0.6 | 48* | / | / | -3 | / | -5.0 | /
CCC1=C2CC[C@H]3C(=O)N(CC)C(=O)[C@H]3[C@H]2[C@@]2(Cc3ccccc3)C(=O)N(Cc3ccccc3)C(=O)N2C1=O | 1.3 | / | / | -9 | -1 | -12 | -7.2 | 3.1
Cc1ccc(S(=O)(=O)N2CCC(C(=O)OCc3ccc([N+](=O)[O-])cc3)CC2)cc1 | 0.9 | 3.3 | 0% | -2 | -7 | -11 | 3.3 | -3.0
Cc1noc(C)c1S(=O)(=O)N1CCC(C(=O)N(C)Cc2ccccc2)CC1 | 1.5 | / | 30% | 0 | 3 | -7 | 3.6 | -1.0
CS(=O)(=O)c1ccc2nc(NC(=O)c3cccc(Cl)c3)sc2c1 | -5.2 | -0.3 | -5% | -7 | -6 | -2 | 1.8 | -0.8
CC1CCN(c2nc3ccc(C(=O)N4CCN(Cc5ccccc5)CC4)cc3s2)CC1 | / | 11 | 65% | -7 | / | 13 | / | ?
COc1ccc(C(C)=O)cc1CSc1nnc2c(Cl)cc(Cl)cn12 | 1.7 | -0.3 | 12% | -1 | -5 | -25 | 1.4 | -2.1
COCCNC(=S)Nc1ccc(S(=O)(=O)Nc2cnc3ccccc3n2)cc1 | 0.2 | 6.1 | / | 6 | -2 | 13 | -2.2 | 4.2
O=C(NCc1ccccn1)c1ccco1 | 0.7 | -4.1 | 7% | -7 | -5 | -19 | -3.0 | 0.7
C=CCc1ccccc1OCC(O)Cn1ccnc1C (stereo not drawn) | 0.3 | / | 1% | -7 | -22 | -10 | 0.1 | 5.8
COc1ccc(/C=C/C(=O)OCCNC(=O)c2ccncc2)cc1OC | 0.1 | 0.7 | ? | 9 | / | -3 | -2.5 | -1.7
Brc1ccccc1OCCCOc1cccc2cccnc12 | -0.1 | 0.1 | / | 3 | -6 | 7 | 4.9 | -0.4
CSc1oc(-c2ccco2)nc1S(=O)(=O)c1ccc(Br)cc1 | 0.6 | 14 | 6% | 5 | -8 | 11 | -4.2 | -1.7
CC1(C)Cc2ccccc2-c2nnc(SCC(=O)N3CCN(c4ccccc4)CC3)n21 | 0.3 | / | 4% | -2 | -1 | 29 | 3.2 | 1.6
O=C(CCC1COc2ccccc2O1)N1CCCC1 (stereo not drawn) | -0.5 | / | 5% | -3 | -5 | -9 | -3.4 | -2.3
O=C(CSc1ccc(F)cc1)Nc1nnc(-c2ccco2)o1 | 0.1 | 1.4 | 0% | -11 | -8 | -5 | 0.3 | -0.2
O=C(Nc1ccc(S(=O)(=O)Nc2nccs2)cc1)c1nn(-c2ccc(F)cc2)ccc1=O | 0.5 | 0.0 | / | / | -5 | -2 | 0.0 | -1.4
Cc1cc(Cl)n2nc(C)c(-c3ccc(Cl)cc3)c2n1 | -0.5 | 0.9 | ? | 113* | -1 | / | 0.7 | /
COc1ccccc1N(CC(=O)NCCC1=CCCCC1)S(=O)(=O)c1ccccc1 | 0.4 | 0.3 | 14% | -3 | -7 | 16 | -6.2 | -7.4
Cc1ccc(C)c(NC(=O)c2cc[n+](C)cc2)c1 | -1.4 | -1.5 | / | 5 | -5 | -18 | 4.7 | -0.5
O=C(N/N=C/C=C/c1ccco1)c1cccc([N+](=O)[O-])c1 | 1.3 | / | ? | 2 | 4 | -10 | 2.5 | ?
COc1cc(/C=N/NC(=O)C(=O)NCc2ccco2)cc(Cl)c1O | -0.2 | 2.8 | 17% | -11 | 7 | -4 | 6.4 | -0.8
O=C(/C=C\c1ccccc1)NCC(=O)N/N=C/c1ccc(O)cc1O | -0.2 | / | 7% | -8 | 9 | 4 | 2.2 | 4.4
